Bioassay records (PubChem)
Menin-MLL FL inh: qHTS Assay for Inhibitors Targeting the Menin-MLL Interaction in MLL Related Leukemias: Competition With Fluorescein Labeled MLL-derived Peptide; Fluorescence polarization, fluorescein-MLL peptide displacement from menin; FP activity change, % at 61.4 µM; 290,000 tested, under 10 active; AID 1766, 2009; inconclusive = falling polarisation curve, or a change in total fluorescence; inactive = total fluorescence flat and polarisation flat or rising; no compound was filed as active; the % refers to the polarisation; negative = inhibition;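 also: % of control where 0% means no effect; inhibitors lower the polarisation; unlabelled MLL peptide was the positive control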
Sfp PPTase inh: qHTS Assay for Inhibitors of Bacillus subtilis Sfp phosphopantetheinyl transferase (PPTase); 4'-phosphopantetheinyl transferase ffp (Bacillus subtilis), Q9F4F7; Biochemical Sfp PPTase activity, qHTS; Potency, µM, inactives show max response, negative = inhibition, most hits filed as inhibitors; hit rate 3.5% among 310,000; active = well fitted inhibition curve with a large enough effect; inconclusive = small, poorly fitted or top-dose-only effect, or another doubt; inactive = no such curve, though single readings can be large or run the other way;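 also: the enzyme is Sfp with the accession as filed and its product quenches rhodamine fluorescence; potency is read from the fitted curve at half-maximal effect; 0% = enzyme reaction without inhibitor and -100% = no enzyme wells; top concentration of the series not given in the record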
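Fluorescence-quenching assay with 15 nM Sfp, 5 uM rhodamine-CoA and 12.5 uM BHQ-2-labelled ybbR peptide in pH 7.6 Hepes/MgCl2 buffer. Enzyme was pre-incubated with compound for 15 min at room temperature. Rate was taken from the 30-min fluorescence change (525/598 nm).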
gsp antagonist: qHTS for Antagonists of gsp, the Etiologic Mutation Responsible for Fibrous Dysplasia/McCune-Albright Syndrome: qHTS; gsp-mutant cells, cAMP HTRF, 30 min; control for the full effect not named in the record; Potency, µM (top dose mostly 76.9 µM), for the others: at the top dose activity change, negative = inhibition, hits mostly inhibitors; hit rate 0.4% among 340,000; AID 624288, 2012; active = falling curve of any shape with a large fitted effect; inconclusive = falling curve, mostly with a smaller effect; inactive = flat or rising curve; cell line not stated here;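 also: intracellular cAMP measured with PDE inhibitor Ro 20-1724 present during compound exposure; potency is read from the fitted curve at half-maximal effect; % is scaled to controls: 0 for no effect and ±100 for the full control effect; nearly all actives have a fitted effect of over 65% in size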
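Cells in G418 medium, seeded 16-24 h, 37C; buffer exchange to DPBS + 1 mM CaCl2, 0.5 mM MgCl2, 0.05% BSA; cpds in DMSO + […] (300 uM stock), 30 min 37C; HTRF cAMP detection.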
gsp ag: qHTS for Agonist of gsp, the Etiologic Mutation Responsible for Fibrous Dysplasia/McCune-Albright Syndrome: qHTS | hit rate 0.13% among 340,000 | gsp mutant cells, cAMP HTRF, 30 min; control for the full effect not named in the record | Potency, µM (top dose mostly 76.9 µM), for inactives: top-dose activation (cAMP increase), actives largely listed as activators; active = well fitted activation curve with a large enough effect; inconclusive = small, poorly fitted or top-dose-only effect, or another doubt; inactive = no such curve, though single readings can be large or run the other way; cell line not stated here;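 also: phosphodiesterase inhibitor Ro 20-1724 added with compounds to block cAMP breakdown; potency is read from the fitted curve at half-maximal effect; nearly all actives have a fitted effect of over 60% in size; about a fifth of the inactives were tested at one dose only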
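Cells in DMEM/10% FBS with G418 were pretreated with compounds in DMSO plus […] (300 uM stock) for 30 min at 37C. cAMP was measured by HTRF (cAMP-d2 plus anti-cAMP antibody-K) after 30 min at room temperature.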
TRPML1 blocker: qHTS for Inhibitors of the Human Mucolipin Transient Receptor Potential 1 (TRPML1); hit rate 0.02% among 390,000; TRPML1-inducible cells, Ca2+ dye fluorescence, FDSS; stronger effect = lower value; inhibition of EC80 agonist-evoked calcium signal; activity change, negative = inhibition, % (test concentration not listed); Mucolipin-1 (Homo sapiens), Q9GZU1; AID 624415, 2012; in the data active means activity change below about -50%; inconclusive means about -30% to -50%; inactive means above about -30%;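 also: stimulus is agonist 54-4 at its EC80 concentration; % is scaled to controls: 0 for no effect and ±100 for the full control effect; compound concentration not given in the record; the text of the record puts the active cut at -80%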
Target sequence (Q9GZU1 whole entry, looked up): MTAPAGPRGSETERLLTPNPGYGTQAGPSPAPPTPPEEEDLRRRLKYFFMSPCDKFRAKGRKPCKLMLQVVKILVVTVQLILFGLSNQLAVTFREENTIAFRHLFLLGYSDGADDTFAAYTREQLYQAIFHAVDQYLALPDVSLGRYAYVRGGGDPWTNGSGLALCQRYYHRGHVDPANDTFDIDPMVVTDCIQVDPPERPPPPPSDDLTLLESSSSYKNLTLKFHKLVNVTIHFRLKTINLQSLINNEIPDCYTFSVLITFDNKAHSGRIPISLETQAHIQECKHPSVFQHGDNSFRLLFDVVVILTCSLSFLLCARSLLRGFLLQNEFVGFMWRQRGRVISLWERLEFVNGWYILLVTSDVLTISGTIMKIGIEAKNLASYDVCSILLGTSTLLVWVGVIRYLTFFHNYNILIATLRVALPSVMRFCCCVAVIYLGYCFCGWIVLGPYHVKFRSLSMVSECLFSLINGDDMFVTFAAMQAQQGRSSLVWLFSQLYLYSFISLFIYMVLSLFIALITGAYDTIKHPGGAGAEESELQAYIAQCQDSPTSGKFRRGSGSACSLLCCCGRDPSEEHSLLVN
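TRPML1-DL cells, Tet-induced overnight (~16 h, 37 °C) at 1,500 cells/well, were loaded with Ca8 no-wash dye plus quencher for 45-90 min at room temperature. Compounds were pinned during FDSS kinetic reading; agonist 54-4 at EC80 (4 uM final) then added.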
TRPV1 potentiator: HTS Assay for Compounds that Act as Potentiators of the Vanilloid Receptor 1. Transient receptor potential cation channel subfamily V member 1 (Homo sapiens), Q8NER1. TRPV1-expressing cells, Fluo-8 calcium influx, capsaicin EC20 potentiation; host cell line not named in the record; control for the full effect not named in the record. potentiation, % at 8.33 µM. hit rate 0.02% among 320,000. AID 540277, 2011; active means potentiation above 80%; inconclusive means 30% to 80%; inactive means below 30%; also: 0% is about no effect
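Fluo-8 calcium influx in TRPV1-expressing cells, kinetic read (ex 480/em 520 nm). Compound added and read 3 min for agonist activity, followed by capsaicin at EC20 final and 2 min further read for enhancement.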
ClpP mod: qHTS Assay for Activators of ClpP; ATP-dependent Clp protease proteolytic subunit (Bacillus subtilis (strain 168)), P80244; purified B. subtilis ClpP, FRET peptide cleavage, 20 min; Potency, µM (highest dose often 57.5 µM), inactives show at the top dose activity change, negative = active; hit rate 1.9% among 340,000; AID 651965, 2013; active = well fitted falling curve with a large enough effect; inconclusive = small, poorly fitted or top-dose-only effect; inactive = no such curve, though single readings can be large or run the other way; also: potency is read from the fitted curve at half-maximal effect; the source files actives as falling curves though it sought activators and does not explain the sign; nearly all actives have a fitted effect of over 65% in size; many hits overshoot -100%
Target sequence (P80244 whole entry, looked up): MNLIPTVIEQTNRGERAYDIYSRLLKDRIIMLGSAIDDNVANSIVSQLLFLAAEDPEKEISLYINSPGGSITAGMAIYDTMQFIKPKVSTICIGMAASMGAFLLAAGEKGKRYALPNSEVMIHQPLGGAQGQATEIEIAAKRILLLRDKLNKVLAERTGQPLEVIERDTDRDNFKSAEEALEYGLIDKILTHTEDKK
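FRET quenching reversal measured ClpP activation: 10 microg/mL B. subtilis ClpP at pH 8 with the FRET-FV decapeptide, read at 430 nm after 320 nm excitation. The 20-min minus 0-min signal was scaled between DMSO/no-enzyme wells and ADEP (5.8 microM final).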
* = called active by the depositor; ? = inconclusive; nt = not tested or not shown; & = joins results of further samples; [ ] = dose if it differs, or a comment.

Structure,Menin-MLL FL inh,Sfp PPTase inh,gsp antagonist,gsp ag,TRPML1 blocker,TRPV1 potentiator,ClpP mod
CN(C)C(=O)c1c(NC(=O)c2ccccc2)sc2c1CCC2,9.6,12.1%,6.7%,23.3%[15.4 µM],2.5,-0.8,0.0%
O=C(NCCC(=O)N(Cc1ccco1)Cc1cccs1)c1ccccc1Cl,nt,nt,-6.6%,-15.8%,-10.1,-22.6,-0.6%
C#CCNc1cc(-c2ccccc2)nc2ncnn12,0.5,-2.9%,14.9%,-3.8%,13.2,-14.5,-17.3%
COC(=O)c1cc(NC(=O)c2cc(-c3ccc(OC)cc3)oc2C(F)(F)F)ccc1N1CCOCC1,2.5,-2.0%,1.0%,-57.2%,19.6,-10.8,?
CC1(C)CC(=O)C=C(C#CC2(O)CCCCC2)C1,nt,nt,nt,-41.1%,14.2,nt,0.6%
CC1CCC(NS(=O)(=O)c2ccc(Cl)s2)CC1 (stereo not given),nt,nt,10.7%,-7.2%[15.4 µM],11.7,-3.5,-1.2%
COC(=O)c1cnc(Oc2ccc(NC(=O)NC(=O)c3c(F)cccc3F)cc2)cc1C(F)(F)F,6.1,4.9%,5.8%,-0.1%,-14.3,nt,nt
Cc1c(NC(=O)C(C)OC(=O)c2cccnc2)c(=O)n(-c2ccccc2)n1C (stereo not given),5.0,-8.1%,1.7%,12.3%[15.4 µM],-8.1,-12.1,nt
Cc1ccc(OCCN2C(=O)NC3(CCc4ccccc4C3)C2=O)cc1 (stereo not given),3.1,26.7%,8.0%,-20.9%,12.9,-8.2,-0.2%
COC(=O)c1ccccc1NC(=O)Nc1ncccc1C,-1.0,13.5%,-12.0%,5.5%,27.1,4.5,3.6%
Cc1nc2ccccn2c1/C(O)=C1\C(=O)C(=O)N(CCCn2ccnc2)C1c1ccncc1 (stereo not given),-1.5,0.5%,13.5%,17.8µM*,33.2,5.7,-1.5%
Cc1nnc(NC(=O)c2ccccc2Br)s1,0.1,-3.1%,17.0%,-6.2%,-1.6,3.9,-2.2%
CCCCc1cc(=O)oc2cc(OCC(=O)Nc3ccccn3)ccc12,nt,6.0%,0.6%,-64.7%[inhibitor],-3.0,6.0,-22.6%
O=C(NCCCN1CCOCC1)Nc1ccc(Cc2ccc(NC(=O)NCCCN3CCOCC3)cc2)cc1,1.5,-21.5%,13.9%,2.3%,-5.9,2.5,1.6%
Cc1cccc(C)c1NC(=O)CN(C)CC(=O)N(C)CC(=O)Nc1ccccc1Br,nt,nt,-5.7%,-18.1%,3.3,-6.6,0.3%
CCN(CC)C(=O)c1ccc2c(=O)n(Cc3ccc4c(c3)OCO4)c(=S)[nH]c2c1,2.3,6.1%,?,-33.6%[inhibitor],1.6,17.6,0.1%
Cn1c(N2CCC(C(N)=O)CC2)nc2c1c(=O)n(Cc1ccc(Cl)cc1)c(=O)n2C,2.7,-5.0%,-17.7%,-29.7%,-2.2,23.7,-3.0%
Cn1c(CO)nc2c3ccccc3ccc21,nt,nt,0.1%,-26.8%,8.3,nt,nt
COc1ccc(NC(=O)C(CC(C)C)NC(=O)c2ccccc2C)cn1 (stereo not given),2.1,12.5%,1.8%,-3.2%,5.7,-4.6,-0.4%
COc1ccc(NS(=O)(=O)c2cccc(C(=O)NNC(=O)c3ccc(O)c(Cl)c3)c2)cc1,nt,nt,9.8%,4.7%,49.7,21.6,-3.7%
Cc1ccc(N2C(=O)N3[C@H](c4ccc(F)cc4)[C@@H]4C(=O)N(C5CCCCC5)C(=O)[C@@H]4[C@]3(Cc3ccccc3)C2=O)cc1,1.0,13.8%,-2.1%,nt,-2.1,7.0,-1.4%
Cc1cccc(CC(=O)N2CCN=C2SCc2ccc([N+](=O)[O-])cc2)c1,2.3,8.5%,4.0%,3.8%,25.8,-13.0,0.8%
Cc1cccc(NC(=O)CSc2ncnc3nc[nH]c23)c1,1.7,7.6%,9.3%,?,7.6,4.1,-0.6%
Cc1ccc2c(CN3CCN(Cc4ccccc4)CC3)cc(=O)oc2c1C,3.0,-1.1%,6.3%,-3.8%[15.4 µM],9.6,10.9,nt
CCCCC(NC(C)=O)c1nc2ccccc2[nH]1 (stereo not given),6.1,-0.3%,5.3%,1.5%,-9.1,-9.2,1.3%
O=C(CSc1nc2ccccc2c(=O)n1-c1ccccc1)N1CCCC1,6.5,3.8%,11.8%,6.6%,25.7,14.9,-1.8%
COc1ccc(C(=O)CCC(=O)NCc2cc(OC)cc(OC)c2)cc1,0.4,11.0%,-5.6%,27.2%,-5.6,17.8,0.3%
Cc1ccc(OCCNC(=O)c2ccccc2N)cc1,-3.6,-3.9%,11.8%,?,-8.3,?,3.7%
Cc1noc(C)c1NC(=O)N(C)C[C@H]1Oc2c(NC(=O)C3CCCCC3)cccc2C(=O)N([C@H](C)CO)C[C@@H]1C,nt,nt,13.3%,nt,6.7,nt,-0.9%
Cc1cc(C(=O)COC(=O)c2ccc(N)cc2)c(C)n1-c1c(C)n(C)n(-c2ccccc2)c1=O,-2.3,-13.3%,-11.8%,-11.5%[15.4 µM],8.0,?,nt
Cc1ccc(S(=O)(=O)CCC(=O)OCc2nc(N)nc(Nc3ccccc3C)n2)cc1,nt,nt,5.1%,?,9.9,8.2,112.5%
N#Cc1cccc(NCC(=O)Nc2ccc3c(c2)OCCO3)c1,4.9,13.2%,-1.8%,11.5%[15.4 µM],14.1,5.1,0.4%
COc1ccc2[nH]c(=O)c(CN(CCO)C(=O)c3ccccc3F)cc2c1,3.2,11.2%,0.8%,-36.8%[inhibitor],-1.7,5.6,20µM*
N#CC1(P(=O)(c2ccccc2)c2ccccc2)CCCC1,0.7,9.7%,2.6%,4.6%[15.4 µM],24.7,111.1*,nt
C/C(=N\NC(=O)C(O)c1ccccc1)c1cccnc1 (stereo not given),-7.7,-5.0%,3.4%,-3.6%,-9.3,15.8,0.6%
CC1(C)Cc2nc(-c3ccccc3)nc(SCC(=O)N3CCCC3)c2CO1,2.0,-1.9%,-2.7%,8.6%[15.4 µM],-21.0,-6.8,nt
O=C(CSc1nc2ccsc2c(=O)n1Cc1ccccc1)NCC1CCCO1 (stereo not given),1.1,10.2%,-13.3%,19.2%[15.4 µM],-18.6,-14.7,nt
COc1ccc(OC)c(NS(=O)(=O)c2ccc3[nH]c(=O)[nH]c3c2)c1,nt,nt,nt,?,3.6,nt,1.6%
CSc1ncccc1C(=O)OCC(=O)NCc1cccs1,nt,nt,3.2%,-39.2%,-8.6,nt,-1.6%
CCN1CCN(C(c2cccs2)C(C)NC(=O)CC(C)C)CC1 (stereo not given),4.0,12.5%,-19.8%,-28.1%,11.4,-19.5,1.0%
COc1ccc(N2C(=O)C(CC(=O)Nc3ccc(F)cc3)N(CCc3cccs3)C2=O)cc1 (stereo not given),2.0,6.0%,3.2%,2.3%,0.2,-1.3,-1.9%
O=C(CCN1C(=O)S/C(=C\c2ccc(F)cc2)C1=O)Nc1ccc(O)cc1C(=O)O,nt,9.9%,-5.3%,-1.9%,-23.4,-8.9,-2.2%
COc1ccc(/C=C2/SC(=O)N(CC(=O)Nc3cc(C)on3)C2=O)cc1OC,0.5,2.4%,3.5%,27.2%,15.2,-2.1,3.4%
Cc1c(O)cccc1C(=O)N[C@@H](CSc1ccccc1)[C@H](O)CN1C[C@H]2CCCC[C@H]2C[C@H]1C(=O)NC(C)(C)C,-2.6&6.0,10.9%&16.9%,-29.4%&-22.9%,nt,-2.5&-6.0,-7.9,1.1%&0.9%
COc1ccc(-n2ncc3c(=O)n(CC(=O)Nc4ccc(S(=O)(=O)N5CCOCC5)cc4)cnc32)cc1,4.8,15.3%,-14.1%,13.8%,-8.7,7.0,-9.4%
COc1ccc2c(c1)oc(=O)c1cc(OC)ccc12,0.7,3.8%,1.9%,nt,nt,20.0,4.5%
O=C(Nc1ccc(F)cc1F)c1cc2n(n1)C(C(F)(F)F)C1CCCCC1N2 (stereo not given),2.2,13.4%,2.1%,-4.3%,-12.5,-16.0,28.2µM*
COC(=O)c1cccc(Nc2c3c(nc4ccccc24)CCC3)c1,-1.0,-1.9%,-9.8%,-2.1%[15.4 µM],11.4,25.8,-1.5%
COc1ccc(CC(=O)Nc2ccc(-c3cn4ccccc4n3)cc2)cc1OC,?,5.1%,-8.6%,?,-7.9,-4.2,?
COc1ccc(-c2ccc(CCC(=O)O)n2Cc2ccco2)cc1,1.9,?,-16.9%,-1.8%[15.4 µM],1.7,1.1,nt
COc1ccccc1CNS(=O)(=O)c1ccc(Br)s1,3.8,12.5%,3.5%,-4.1%,13.3,-5.5,-1.5%
C=CCOc1ccc(CN(C)c2ccc(S(=O)(=O)N3CCN(C)CC3)cc2[N+](=O)[O-])cc1,nt,nt,4.9%,-26.5%,1.2,-7.9,-16.4%

No enrichment for hits. Share with any hit: about 4.9%.
